# KCNQ2 pot: KCNQ2 (rat) channel potentiation. O88943. CHO-K1 KCNQ2, FluxOR thallium flux fluorescence; hits give high values. B-score at 10 µM. hit rate 0.54% among 310,000. AID 2239;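 active = fluorescence ratio B-score at least 3 SD of library B-scores, with initial fluorescence B-score within 3 SD, cut at about 5.3 in these data; same plate scores as AID 2156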;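 note: B-score of peak minus minimum over baseline fluorescence ratio after K+ and Tl+ stimulus; positive B-score means potentiation of KCNQ2 with more thallium influx and brighter signal; only the inactives scoring about 0 or higher are listed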
# Target sequence (O88943 whole entry, looked up): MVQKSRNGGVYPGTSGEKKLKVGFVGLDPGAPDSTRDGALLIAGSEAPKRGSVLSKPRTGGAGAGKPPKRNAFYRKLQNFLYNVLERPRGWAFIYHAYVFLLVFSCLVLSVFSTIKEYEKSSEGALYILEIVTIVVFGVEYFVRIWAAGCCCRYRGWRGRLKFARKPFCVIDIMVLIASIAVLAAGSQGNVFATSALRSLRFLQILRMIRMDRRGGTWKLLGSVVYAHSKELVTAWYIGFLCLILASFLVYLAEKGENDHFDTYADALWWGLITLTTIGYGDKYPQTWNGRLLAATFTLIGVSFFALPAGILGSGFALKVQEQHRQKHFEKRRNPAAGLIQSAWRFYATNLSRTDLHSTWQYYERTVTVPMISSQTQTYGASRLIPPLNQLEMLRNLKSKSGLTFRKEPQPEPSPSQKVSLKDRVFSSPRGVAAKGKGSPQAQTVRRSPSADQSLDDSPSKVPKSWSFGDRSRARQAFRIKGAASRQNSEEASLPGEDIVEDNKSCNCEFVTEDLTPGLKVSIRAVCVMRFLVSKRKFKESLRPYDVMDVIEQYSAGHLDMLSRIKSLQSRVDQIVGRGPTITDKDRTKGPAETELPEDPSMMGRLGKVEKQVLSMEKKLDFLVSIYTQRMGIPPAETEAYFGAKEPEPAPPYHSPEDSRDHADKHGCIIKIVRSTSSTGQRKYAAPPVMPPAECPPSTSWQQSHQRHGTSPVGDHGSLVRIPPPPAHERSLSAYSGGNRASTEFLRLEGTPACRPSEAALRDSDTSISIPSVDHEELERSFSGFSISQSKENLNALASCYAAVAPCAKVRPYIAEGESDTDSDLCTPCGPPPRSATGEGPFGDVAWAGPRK
# KCNQ2 pot baseline: further read-out of KCNQ2 pot, marked with its call; B-score; compound at 10 µM; measured here: initial fluorescence intensity artifact check;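 brightness before thallium and not channel activity; 0 = typical well and far values either way flag optical interference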
# An asterisk follows results filed as active. These rows are one share of the data; the hit share may differ from the screen's.
# Values in the order: KCNQ2 pot baseline	KCNQ2 pot
CSc1nc(-c2ccccc2)c(C#N)c(=O)[nH]1
→ -3.81	0.03
Cc1nn2c(CN(C(=O)CN3CCOCC3)c3ccccc3)nnc2c2ccccc12
→ -0.27	0.31
CCCCNC(=O)c1onc(CSc2ccccc2)c1C(=O)O
→ -0.45	0.74
Cc1ccc(N2C(=O)CC(Nc3ccccc3)C2=O)cc1 (configuration not stated)
→ 1.2	0.32
Cc1ccc(/C=N/N2CCOCC2)s1
→ 0.17	0.31
O=C(CCC(=O)N1CCOc2ccc(Cl)cc21)NCCCN1CCN(Cc2ccccc2)CC1
→ -0.35	0.7
CCOc1ccc(NC(c2ccccn2)c2oc(CO)cc(=O)c2O)cc1 (configuration not stated)
→ -0.78	0.01
CCCCOCCCNC(=S)Nc1ccc(S(=O)(=O)N2CCOCC2)cc1
→ 0.92	1.39
CCOC(=O)C1(CC)NC(c2ccco2)C2C(=O)N(CC)C(=O)C21 (configuration not stated)
→ 0.01	0.01
CCc1cc(C(=O)O)c(NC(=O)/C=C/c2ccc(OC)c(OC)c2)s1
→ 0.82	0.12
N#Cc1cnc(Oc2ccc(Cl)cc2)nc1N
→ -2.8	1.63
Cc1nc2ccc(S(=O)(=O)N(C)CC(=O)Nc3ccccc3F)cc2s1
→ 0.41	0.2
C/C(=N\NC(=O)Cc1c(Cl)cccc1Cl)c1cccnc1
→ -0.42	1.18
Brc1cccc(CN2CCCCCC2)c1
→ -0.06	0.57
CCC(C)c1ccccc1N1CC(C(=O)Nc2ccc(S(=O)(=O)N3CCOCC3)cc2)CC1=O (configuration not stated)
→ -4.81	1.48
O=C(NCc1ccc(F)cc1)C1CCN(S(=O)(=O)c2ccc3c(c2)OCCCO3)CC1
→ -1.16	0.32
CNCCc1ccccn1
→ 0.01	0.12
CCOc1cc(/C=N/NC(=O)CSc2nncn2C)ccc1OC(=O)c1ccc(Cl)cc1
→ -0.09	0.35
COC(=O)c1sccc1NC(=O)CC1C(=O)NCCN1C(=O)c1c(F)cccc1Cl (configuration not stated)
→ -0.57	1.21
CCCCCCn1c(CN2CCN(CCO)CC2)nc2c1c(=O)n(C)c(=O)n2C
→ 0.08	0.89
O=C(Cn1nc(C(F)(F)F)c2c1CCCC2)NC1CCCC1
→ 1	0.23
Cc1ccccc1NC(=S)N1CCCCCC1
→ -1.26	0.03
CCN(c1ccccc1)S(=O)(=O)c1cccc(C(=O)NCc2ccncc2)c1
→ 0.09	0.75
COc1cccc(NC(=O)c2ccc(S(=O)(=O)NCc3cccnc3)cc2)c1
→ -0.85	1.25
NC(=O)c1ccsc1NC(=O)C1CCCCC1
→ -0.12	1.73
O=C(NC1CCCCC1)Oc1cc2oc(=O)sc2cc1Br
→ 2.61	0.15
O=C(CSc1ncnc2ccccc12)NCC(=O)c1ccccc1
→ -1.84	1.82
Cc1ccc(NC(=O)c2cccc(NC(=O)CC3SC(N4CCCCC4)=NC3=O)c2)nc1 (configuration not stated)
→ 1.07	4.1
COc1ccc(C(=O)NCC2(N3CCCCC3)CCCCC2)cc1S(=O)(=O)N(C)C
→ 0.17	0.34
COc1ccc([C@@H]2[C@@H]3C(=O)N(C(C)(C)C)C(=O)[C@@H]3[C@]3(Cc4ccccc4)C(=O)N(c4ccc(OC)cc4)C(=O)N23)cc1
→ -0.09	1.77
Cc1ccnc(NS(=O)(=O)c2ccc(NC(=O)Cc3ccc(Br)cc3)cc2)n1
→ -0.19	1.24
CCOC(=O)c1nc[nH]c1C
→ 1.33	1.58
COc1ccc(C(c2c(O)cc(C)oc2=O)c2c(O)cc(C)oc2=O)cc1
→ -0.41	0.49
O=C1CC(NS(=O)(=O)c2cccs2)CN1c1ccccc1 (configuration not stated)
→ -1.26	3.88
COc1ccc(NC(=O)C2CSC3c4ccccc4C(=O)N23)cc1 (configuration not stated)
→ 1.18	0.28
CC12COC3(C(=O)Nc4ccccc4F)CC1CCC32C (configuration not stated)
→ -0.54	0.25
COc1ccc(C(=O)COC(=O)[C@H](C)Nc2ccc(C(F)(F)F)cc2[N+](=O)[O-])c(OC)c1
→ -0.76	0.76
COCCNCCCCOc1ccc(C)cc1[N+](=O)[O-]
→ -0.58	2.5
CC(C)N1CCc2c(sc(NC(=O)Cc3ccccc3)c2C#N)C1
→ -1.12	1.6
CCOc1ccc(-n2nnnc2SCC(=O)NC2CCCC2)cc1
→ 0.25	1.25
CC(=O)n1cc([C@@H]2C=C(C(=O)N3CCN(C)CC3)O[C@H](OCc3ccc(CO)cc3)C2)c2ccccc21
→ 0.01	0.47
O=C(CCNS(=O)(=O)c1ccc(Cl)cc1)N1CCCCCC1
→ 3.53	0.13
CCC(C)C1C(C#N)=C(N)OC2=C1C(=O)CC(C)(C)C2 (configuration not stated)
→ -0.52	2.94
Cc1ccc(S(=O)(=O)N(CC(=O)c2ccc(Cl)cc2)C(=O)N2CCN(C)CC2)cc1
→ 1.78	0.24
Cc1nnc(SCc2cccc([N+](=O)[O-])c2)o1
→ -0.68	0.67
CCCN1CCC(NC(=S)Nc2cccc(Cl)c2Cl)CC1
→ -1.91	2.24
O=C(CSc1nnnn1-c1cccnc1)Nc1ccc(F)cc1F
→ 0.21	1.66
CCN(CC)C(=O)[C@]1(c2ccccc2)C[C@@H]1CN
→ 0.3	0.08
Cc1nnc(SCC(=O)NCc2ccc(Cl)cc2)[nH]c1=O
→ 0.22	0.45
CCc1ccc(C2C(C#N)=C(N)Oc3cc(N)ccc32)cc1 (configuration not stated)
→ 0.2	0.04

# Additional compounds follow:
# Values in the order: KCNQ2 pot baseline	KCNQ2 pot
O=C(c1ccc(Cl)c(S(=O)(=O)NCc2ccco2)c1)N1CCN(c2ccc(F)cc2)CC1
→ 0.08	0.09
N#Cc1c(/N=C/c2ccco2)sc2c1CCCCC2
→ -0.27	0.04
COC(=O)Cn1c(=O)cnc2ccccc21
→ -3.19	0.03
Cc1cc(C)cc(C(=O)N2CCCCCC2)c1
→ 0.82	0.46
Cc1nnc(SCC(=O)c2c(N)n(Cc3ccccc3)c(=O)n(C)c2=O)n1C
→ -1.07	0.07
COc1ccc(-n2c(=O)[nH]cc(C(=O)Nc3ccccc3)c2=O)cc1
→ -0.09	3.1
CCN(CC)Cc1oc(-c2ccccc2)cc1C(=O)O
→ -0.58	0.01
C[C@@H](NC(=O)[C@@H]1Cc2ccccc2CN1C(=O)OC(C)(C)C)C(=O)NC1CCCC1
→ 0.38	0.12
Cc1cc(=O)[nH]c(SC/C=C/c2ccccc2)n1
→ -2.87	1.23
Cn1c2ccccc2c2nnc(SCC(N)=O)nc21
→ -0.08	1.02
NS(=O)(=O)c1ccc(CNC(=O)/C=C/c2cccc([N+](=O)[O-])c2)cc1
→ 0.02	0.59
COc1ccccc1C(=O)NNC(=O)CN1C(=O)c2ccccc2C1=O
→ -0.41	1.39
CCOC(=O)CSc1cccc2cccnc12
→ 0.09	1.08
O=C1c2ccccc2S(=O)(=O)N1CC1CC(c2ccccc2Cl)=NO1 (configuration not stated)
→ 1.21	1.41
CS(=O)(=O)NN1C(=O)c2ccccc2NC1c1cccc(O)c1 (configuration not stated)
→ 1.74	0.22
O=C1NCCC/C1=N/Nc1cc(F)ccc1F
→ -0.21	0.36
CCc1cccc(CC)c1NC(=O)COC(=O)c1cccc(-c2ccc(OC(C)=O)cc2)c1
→ 0.22	0.62
CCOc1ccc(C(=O)CCC(=O)N2CCC(C(=O)OC)CC2)cc1
→ 0.86	0.75
COc1ccccc1NC(=O)Nc1nc(CC(=O)NCc2ccccn2)cs1
→ 0	0.27
Cc1ccc(SCC(=O)OCC(=O)NCc2cccs2)cc1
→ 1.36	0.43
CSC1=NC2(C[C@H]2c2ccccc2)C(=O)N1C (some centres not stated)
→ 0.31	0.42
COc1ccc(S(=O)(=O)N2CCC(C(=O)N3CCCCC3)CC2)cc1OC
→ -0.07	1.05
O=C(NC1CCCCCCC1)c1ccc(CNc2c(N3CCOCC3)c(=O)c2=O)cc1
→ 0.09	0.06
Cc1ccc(-n2c(SCC(=O)Nc3ccc4c(c3)OCO4)nnc2-c2cccs2)cc1
→ 0.15	0.09
O=C(CN1CCN(S(=O)(=O)c2ccccc2)CC1)NC1CC1
→ 0.05	0.09
CCOC(=O)CNC(=O)CSc1nnc(-c2ccccc2OC)n1CC
→ 0.33	1.85
COn1c(-c2ccccc2)nc2c1CCc1nonc1-2
→ 0.06	0.89
COCCN1C(=O)N[C@@H](c2ccccc2)[C@H](C(=O)OC)[C@H]1C
→ -1.49	0.78
O=C(CSc1nc2ccc(Cl)cc2[nH]1)Nc1ccc2c(c1)CCC2
→ -0.52	0.25
Cc1nc2ccccn2c1C(=O)CSc1ccccc1
→ 2.2	0.44
CN(C)S(=O)(=O)c1ccc(Cl)c(-c2nnc3n2CCCCC3)c1
→ 0	0.03
CNC(=O)C(=O)Nc1ccc(C)cc1C
→ 0.48	1
O=C(c1cc(-c2ccc(Cl)cc2)on1)N1CCOCC1
→ 0.47	0.2
Cc1cccc(C2c3[nH]c4ccccc4c3CCN2C(=O)Cc2n[nH]c(C)n2)n1 (configuration not stated)
→ -0.19	2.6
Cc1ccc(C(NC(=O)NN2CCN(C)CC2)C(Cl)Cl)cc1F (configuration not stated)
→ 2.31	0.16
O=S(=O)(N1CCOCC1)N1CCN(c2ccccc2F)CC1
→ -0.01	0.95
CCOC(=O)c1cc2c(=O)n3ccccc3nc2n(CC2CCCO2)c1=NC(C)=O (configuration not stated)
→ 1.42	1.16
CCc1ccc(C(C)NC(=S)NC2CCCCC2)cc1 (configuration not stated)
→ -1.13*	19.9*
COCCN(Cc1cccs1)S(=O)(=O)c1ccc(-c2ccc(=O)[nH]n2)s1
→ 1.99	0.52
CC(C)[C@H](NC(=O)N1CC(=O)Nc2ccccc21)C(=O)N[C@H](Cc1ccccc1)C(=O)O
→ -0.31	1.87

# Gathered by group, those above with a furan ring, fused or not
# Values in the order: KCNQ2 pot baseline	KCNQ2 pot
CCOC(=O)C1(CC)NC(c2ccco2)C2C(=O)N(CC)C(=O)C21 (configuration not stated)
→ 0.01	0.01
O=C(c1ccc(Cl)c(S(=O)(=O)NCc2ccco2)c1)N1CCN(c2ccc(F)cc2)CC1
→ 0.08	0.09
N#Cc1c(/N=C/c2ccco2)sc2c1CCCCC2
→ -0.27	0.04
CCN(CC)Cc1oc(-c2ccccc2)cc1C(=O)O
→ -0.58	0.01

# Carrying on.
# Values in the order: KCNQ2 pot baseline	KCNQ2 pot
O=C(CN1C(=O)c2ccccc2S1(=O)=O)NCc1cccnc1
→ 0.54	0.13
COc1nc(N(C)C)nc(N(OC)S(=O)(=O)c2ccccc2Cl)n1
→ 1.05	0.44
CC1=NOC(=O)/C1=C\c1ccc(-c2ccc(Cl)cc2Cl)o1
→ 0.61	0.77
CC(NC(=O)C12CC3CC(CC(O)(C3)C1)C2)c1ccc(Cl)cc1Cl (configuration not stated)
→ -0.87	1.16
CCCC(=O)Nc1ccccc1NC(=O)CN(C)S(=O)(=O)c1ccc(C)cc1
→ -0.94	0.05
CCOC(=O)C1CCCN(C(=O)c2ccc([N+](=O)[O-])cc2)C1 (configuration not stated)
→ -0.78	0.13
Cc1ccn2cc(CCNS(=O)(=O)c3ccc([N+](=O)[O-])cc3)nc2c1
→ 0.03	1.49
Cc1ccc(S(=O)(=O)NC(=O)Nc2ccc(F)cc2)cc1
→ -0.41	0.35
CC(=O)OCCn1c(C)[n+](CCOC(C)=O)c2cc(Cl)c(Cl)cc21
→ 0.62	0.14
CS(=O)(=O)Nc1cccc(C(=O)OCCCOc2ccc(F)cc2)c1
→ 0.01	1.88
Cc1ccc(C(=O)CCc2ccc(N)cc2)cc1
→ -2.16	0.3
Cc1ccccc1NC(=O)NCCc1ccc(Cl)cc1
→ -0.46	0.13
O=C(O)c1ccc(N2C(=O)c3cccc(Oc4ccc(Cl)cc4)c3C2=O)cc1
→ 1.19	1.74
CCOC(=O)c1cccc(NC(=O)Cn2nc(C)n3cccc3c2=O)c1
→ 0.36	0.2
CCOC(=O)NCc1cc(-c2nn(C)c(=O)c3ccccc23)ccc1C
→ -0.01	0.71
CN(C)C(=O)CSc1n[nH]c(=O)n1CCc1ccccc1
→ 0.06	0.4
O=C(Nc1nc2ccccc2[nH]1)c1ccc(Cl)c([N+](=O)[O-])c1
→ 0.33	0.38
C=CCNC(=S)N/N=C/c1ccc(C(C)(C)C)cc1
→ -0.31	1.41
CN(C)C(=O)c1nnsc1Sc1ccc(Cl)cc1
→ 0.8	1
CNC(=O)c1cc2c(=O)n3cccc(C)c3nc2n(C(C)C)c1=N
→ -0.08	0.91
COc1cc(/C=C/C(=O)OCC(=O)N2CCN(C(=O)c3ccco3)CC2)ccc1O
→ 1.15	0.21
COc1ccc(N=Nc2c(C)[nH][nH]c2=O)cc1
→ -1.4	1.39
Cc1cc(C)cc(OCC(=O)N/N=C/c2ccncc2)c1
→ 0.08	1.47
CCOc1ccccc1CNC(=O)c1ccc2c(c1)N(CC)CCS2
→ 2.5	0.34
CC1CN(c2ccccc2)CCN1C(=O)c1cc(COc2c(F)cccc2F)on1 (configuration not stated)
→ -1.11	1.3
COC(=O)c1ccc(CSc2nc3c(c(=O)n2-c2ccc(C)cc2)SCC3)o1
→ -0.12	0.02
O=C(Nc1ccc(COc2ccccc2)cc1)Nc1cccc(C(=O)O)c1
→ -0.01	0.01
CC(C)NC(=S)N/N=C/c1cccs1
→ -0.46	0.61
COc1ccc(C(=O)CNC2=NCCC2)cc1
→ -0.15	0.56
COc1cccc(C(=O)NCCNC(=O)c2ccc(C)nc2)c1
→ -1.33	0.21
CN(C)c1ccc(N=C/C=C2\N(C)c3ccccc3C2(C)C)cc1
→ -1.81	1.08
OCC1(CCOc2ccccc2)CCN(Cc2ccc3c(c2)OCCO3)CC1
→ 0.75	0.46
Cc1cccn2c(=O)c(C=O)c(N3CCCCCC3)nc12
→ 0.45	1.08

# Screening data from PubChem BioAssay.
